# Compound activity from PubChem BioAssay.
# gsp agonist = agonists of gsp mutant (McCune-Albright syndrome); Potency, µM (series often up to 76.9 µM), without a hit: at the top dose activation (cAMP increase), most hits filed as activators; gsp mutant cells, cAMP HTRF, 30 min; control for the full effect not named in the record; 340,000 tested, 0.13% active; active = well fitted activation curve with a large enough effect; inconclusive = small, poorly fitted or top-dose-only effect, or another doubt; inactive = no such curve, though single readings can be large or run the other way; cell line not stated here;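 note: phosphodiesterase inhibitor Ro 20-1724 added with compounds to block cAMP breakdown; potency is the fitted concentration of half-maximal effect; nearly all actives have a fitted effect of over 60% in size; about a fifth of the inactives were tested at one dose only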
#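 Cells stably selected in G418 were plated at 2000/well, grown 16-24 hr, then given compounds in DMSO with the PDE inhibitor […] (300 uM solution added) for 30 min at 37C; cAMP was read by HTRF.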
# TRPML1 blocker = inhibitors of human TRPML1 channel | Q9GZU1 | TRPML1-inducible cells, Ca2+ dye fluorescence, FDSS; stronger effect = lower value; inhibition of EC80 agonist-evoked calcium signal | activity change, negative = inhibition, % (test concentration not listed) | 390,000 tested, 0.02% active | AID 624415; in the data active means activity change below about -50%; inconclusive means about -30% to -50%; inactive means above about -30%;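 note: stimulus is agonist 54-4 at its EC80 concentration; % is set by controls: 0 for no effect and ±100 for the full control effect; compound concentration not given in the record; the text of the record puts the active cut at -80%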
# Target sequence (Q9GZU1 whole entry, looked up): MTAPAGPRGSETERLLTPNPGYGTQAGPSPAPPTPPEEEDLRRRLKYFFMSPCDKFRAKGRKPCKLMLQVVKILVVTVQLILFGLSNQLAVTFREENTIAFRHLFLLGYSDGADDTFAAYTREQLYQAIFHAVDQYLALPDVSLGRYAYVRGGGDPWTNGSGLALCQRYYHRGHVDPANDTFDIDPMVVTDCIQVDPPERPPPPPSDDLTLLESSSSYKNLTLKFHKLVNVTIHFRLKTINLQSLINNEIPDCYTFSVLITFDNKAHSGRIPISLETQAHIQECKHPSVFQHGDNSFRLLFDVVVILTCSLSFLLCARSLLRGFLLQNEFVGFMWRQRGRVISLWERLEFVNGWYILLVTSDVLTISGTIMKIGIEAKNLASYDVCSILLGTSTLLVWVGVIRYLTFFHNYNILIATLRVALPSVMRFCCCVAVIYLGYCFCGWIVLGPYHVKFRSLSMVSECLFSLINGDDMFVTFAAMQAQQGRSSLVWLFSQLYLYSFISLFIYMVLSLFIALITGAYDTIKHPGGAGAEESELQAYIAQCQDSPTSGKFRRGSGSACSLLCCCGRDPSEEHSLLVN
#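 Calcium fluorescence in TRPML1-DL cells induced overnight with Tet: a 110 s read after compound pin addition, then a 110 s antagonist read after challenge with 54-4 at 4 uM final (EC80).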
# TRPML1 ag = human mucolipin-1 channel agonism | activation, % (test concentration not listed) | Q9GZU1 | 410,000 tested, 0.12% active | AID 624414 | TRPML1-expressing cells, Ca2+ dye fluorescence, FDSS; host cell line not named in the record; reference of the full effect not given here; in the data active = activation above about 50%; inconclusive = about 30% to 50%; inactive = below about 30%; note: 0% is about no effect; the text of the record puts the active cut at 80%
#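 Agonist activity was taken from a 110 s kinetic Ca2+ dye read on the FDSS after pinning compounds onto TRPML1-DL cells. The cells were seeded at 1,500/well with Tet inducer, incubated about 16 h, then dye-loaded at room temperature.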
# ClpP mod = qHTS Assay for Activators of ClpP; ATP-dependent Clp protease proteolytic subunit (Bacillus subtilis (strain 168)), P80244; purified B. subtilis ClpP, FRET peptide cleavage, 20 min; Potency, µM (titrated, usually from 57.5 µM), for inactives: top-dose activity change, negative = active; 340,000 tested, 1.9% active; AID 651965, 2013; active = well fitted falling curve with a large enough effect; inconclusive = small, poorly fitted or top-dose-only effect; inactive = no such curve, though single readings can be large or run the other way; note: potency is the fitted concentration of half-maximal effect; the source files actives as falling curves though it sought activators and does not explain the sign; nearly all actives have a fitted effect of over 65% in size; many hits overshoot -100%
# Target sequence (P80244 whole entry, looked up): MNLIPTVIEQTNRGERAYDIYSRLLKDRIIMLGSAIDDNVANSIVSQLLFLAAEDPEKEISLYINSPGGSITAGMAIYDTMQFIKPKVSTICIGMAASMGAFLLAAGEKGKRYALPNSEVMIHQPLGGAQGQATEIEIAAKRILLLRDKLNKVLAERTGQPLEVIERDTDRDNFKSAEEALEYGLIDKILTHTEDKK
#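 FRET quenching reversal measured ClpP activation: 10 microg/mL B. subtilis ClpP at pH 8 with the FRET-FV decapeptide, read at 430 nm after 320 nm excitation. The 20-min minus 0-min signal was scaled between DMSO/no-enzyme wells and ADEP (5.8 microM final).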
# gsp antagonist = antagonizes gsp, the McCune-Albright syndrome mutation; gsp-mutant cells, cAMP HTRF, 30 min; control for the full effect not named in the record; Potency, µM (top dose mostly 76.9 µM), inactives show at the highest dose activity change, negative = inhibition, usual class: inhibitors; 340,000 tested, 0.4% active; active = falling curve of any shape with a large fitted effect; inconclusive = falling curve, mostly with a smaller effect; inactive = flat or rising curve; cell line not stated here;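 note: intracellular cAMP measured with PDE inhibitor Ro 20-1724 present during compound exposure; potency is the fitted concentration of half-maximal effect; % is set by controls: 0 for no effect and ±100 for the full control effect; nearly all actives have a fitted effect of over 65% in size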
#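 Cells in G418 medium, seeded 16-24 h, 37C; buffer exchange to DPBS + 1 mM CaCl2, 0.5 mM MgCl2, 0.05% BSA; cpds in DMSO + […] (300 uM stock), 30 min 37C; HTRF cAMP detection.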
# Menin MLL FP FL = inhibitors of human menin-MLL interaction, wild-type MLL peptide; Fluorescence polarization, fluorescein-MLL peptide displacement from menin; FP activity change, % at 61.4 µM; 290,000 tested, under 10 active; AID 1766; inconclusive = falling polarisation curve, or a change in total fluorescence; inactive = total fluorescence flat and polarisation flat or rising; no compound was filed as active; the % refers to the polarisation; negative = inhibition;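 note: % of control where 0% means no effect; inhibitors lower the polarisation; unlabelled MLL peptide was the positive control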
# Active calls of the source: *; ? = inconclusive; · = not tested or not shown; & = joins results of further samples; [ ] = dose if it differs, or a comment.
# Each structure is followed by: gsp agonist, TRPML1 blocker, TRPML1 ag, ClpP mod, gsp antagonist, Menin MLL FP FL
(1) Cc1nn(CC(=O)N2CCN(c3cccc(C(F)(F)F)c3)CC2)c(=O)c2cccn12
→ ?, 7&-4, -0.6&0.1, -0.9%&-0.5%, 0%, 3.5
(2) CCC1COCCS(=O)(=O)N1Cc1ccc(Cl)cc1 (stereo not drawn)
→ 7%, 0, -0.1&-0.8, -1.4%&1.0%, -8%, -2.1
(3) COc1ccc(CNC(=O)OCc2nccnc2C(=O)Nc2ccc(Br)cn2)cc1
→ -27%, 4, 0.2, -1.0%, 7%, ·
(4) CCn1c(=N)c(C(=O)NCC2CCCO2)cc2c(=O)n3cc(C)ccc3nc21 (stereo not drawn)
→ ·, -7, -0.6, 4.0%, ·, ·
(5) CC(=O)Nc1c(Br)cc(N2C(=O)CCC2=O)cc1Br
→ -7%, 4, 4.0, -0.2%, 14%, 2.0
(6) COc1cccc(NC(=O)CCS(=O)(=O)c2cc3c(cc2Cl)NC(=O)CO3)c1
→ -4%, 9, -0.4, 1.4%, 6%, ·
(7) Cc1ccc(NC(=S)NCc2cccn2C)cc1
→ -4%, -1, -0.1, -2.3%, 12%, 0.3
(8) COc1cc(C=O)ccc1OCc1ccc(Cl)nc1
→ -20%, -7, 0.2, -10%, -2%, -2.6
(9) COc1ccc(C2/C=C\CN(C(=O)Nc3ccccc3-c3ccccc3)CC(=O)N2Cc2ccc(F)cc2)cc1 (stereo not drawn)
→ -88%[inhibitor], -8&0, 0.5&-0.1, 1.8%, ?, 0.4&1.7
(10) CNC(=O)c1cnc(-c2ccccc2)nc1-c1ccccc1
→ -8%[15.4 µM], -7, -1.1, 0.5%, 10%, 0.7
(11) O=C(CN1CCOCC1)Nc1ncc(Br)cc1Br
→ -2%, 12, 0.7, ?, 9%, 3.6
(12) CN1CCN(c2ccc(-c3cccc(NC(=O)COc4ccc(Cl)cc4)c3)nn2)CC1
→ 6%[15.4 µM], 1, -0.2, ?, -13%, ·
(13) CC(=O)c1c(C)[nH]c(C(=O)NC2CCCCC2)c1C
→ -10%, -4, -0.7, 1.4%, -5%, 3.4
(14) Cc1oc2c(cc(NS(=O)(=O)c3cccs3)c3ccccc32)c1C(=O)OC(C)C
→ -2%[15.4 µM], -1, 0.7, 33%, -24%, ?
(15) CN1C(=O)c2ccc(C(=O)NCc3ccccn3)cc2C1=O
→ -6%, 11, 3.5, -0.7%, 13%, ·
(16) O=C1Nc2ccccc2C1=Nc1ccc(-c2nnc3n2CCCCC3)cc1
→ 1%&-18%, -9&2, -0.6&0.1, -1.5%, -10%&4%, 1.8
(17) C=CCn1c(SCC(=O)c2[nH]c(C)c(C(=O)OCC)c2C)nc2scc(-c3ccc(OC)cc3)c2c1=O
→ -2%, 15, -0.8, -1.6%, 7%, 12
(18) CCOC(=O)c1ccc(S(=O)(=O)N2CCN(Cc3cc4c(cc3O)OCO4)CC2)cc1
→ -46%[inhibitor], -10, 3.4, -1.7%, 7%, ·
(19) CCN(C(=O)c1c(N)cnn1C)c1ccccc1
→ 1%[15.4 µM], 13, 0.5, ·, 0%, -3.6
(20) CCn1cc(C(=O)NCc2ccc(F)cc2)c(=O)c2cc(S(=O)(=O)N(C)C)ccc21
→ ·, 0, -0.5, -8.1%, ·, ·
(21) Cc1cc(C)c(S(=O)(=O)N2CCC(C(=O)NCc3ccco3)CC2)c(C)c1
→ -5%, 6, -0.2, 0.4%, 12%, -2.6
(22) Cc1ccc(Cl)cc1N1CCN(C(c2cccnc2)c2nnnn2C2CCCCC2)CC1 (stereo not drawn)
→ 10%, 8, 0.6, -1.3%, 1%, 2.2
(23) O=C(Nc1ccc(Cl)cc1)Nc1ccc(N2CCOCC2)cc1
→ -16%, -10, -0.2, -0.7%, 14%, 4.2
(24) CC(=O)N1c2ccc(S(=O)(=O)NCCC(=O)NC3CCCC(C)C3C)cc2CC1C (stereo not drawn)
→ -57%[inhibitor], 1, -0.9, 3.2%, 2%, ·
(25) COCCCNC(=O)CC1C(=O)N(Cc2ccccc2)C(C)c2nc3ccccc3n21 (stereo not drawn)
→ -15%, 5, -0.4, ·, 0%, -2.8
(26) CCOC(=O)N1CCN(C(=O)CSc2nnc3[nH]c(=O)c(C)c(C)n23)CC1
→ -9%, -1, -0.2, -4.6%, 12%, ·
(27) CCOC(=O)C1CCN(C(=O)c2ccccc2NC(=O)c2ccc(Cl)cc2)CC1
→ 0%, -6, 1.6, -2.3%, 15%, 10
(28) CC(=O)N1CCC(N(C(=O)Nc2c(F)cccc2F)C(C)C)CC1
→ 27%, -23&5, 2.0&-0.9, 0.8%&1.9%, 7%, -0.8
(29) CCOC(=O)c1ccc(COC(=O)c2cc3ccccc3oc2=O)o1
→ 1%, 2, 1.1, ?, -12%, 3.1
(30) CCCCn1c(N)c(N(CCOC)C(=O)CSc2nnc(-c3ccc(F)cc3)n2N)c(=O)[nH]c1=O
→ 14%[15.4 µM], -5, 0.3, 1.0%, 8%, ·
(31) CC1CC(C)CN(C(=O)C(NS(=O)(=O)c2ccc3c(c2)oc(=O)n3C)C(C)C)C1 (stereo not drawn)
→ -4%, 12, 0.0, -0.4%, -4%, 8.4
(32) O=C(O)c1ccc2c(c1)C(=O)N(c1ccccc1-c1ccccc1)C2=O
→ -11%, -1, 0.0, ·, -2%, 5.3
(33) COc1ccccc1N1C(=O)CC(Sc2nccc(C)n2)C1=O (stereo not drawn)
→ 5%, -3, 0.9, -0.1%, 5%, 2.4
(34) COc1ccc(NS(=O)(=O)c2cccc(NC(=O)CCC(=O)c3cccs3)c2)cc1
→ -75%[inhibitor], 9, 1.8, -1.1%, 5%, ·
(35) Fc1ccc(C2=NC(c3cccc(C(F)(F)F)c3)=Nc3ccccc3N2)cc1
→ ·, -11, 2.0, 0.5%, ·, ·
(36) COc1ccc2[nH]c(C(=O)O)c(NS(=O)(=O)c3ccc(OC)c(OC)c3)c2c1
→ -7%, -6, -0.5, ?, 11%, -4.6
(37) COc1ccccc1NC(=O)CSc1nnc(C)n1Cc1ccccc1
→ ?, 8, 0.2, 1.0%, -5%, 1.5
(38) CCOc1ccc(C2c3[nH]c4ccccc4c3CCN2C(=O)CCc2ccccc2)cc1 (stereo not drawn)
→ ·, -17, 1.2, -0.3%, ·, ·
(39) COc1ccc(C2=NOC(C)(c3nnc(-c4ccncc4)o3)C2)cc1 (stereo not drawn)
→ -1%, -10, 1.6, -3.1%, 6%, ·
(40) NS(=O)(=O)c1ccc(N/N=C/c2ccccn2)c([N+](=O)[O-])c1
→ 0%, 7, 0.3, -2.1%, -3%, 0.3
(41) Cc1ccc(NC(=O)C2CCN(S(=O)(=O)c3cccc4nonc34)CC2)cc1
→ ?, 0, -0.3, ·, 7%, 2.1
(42) CCCC1(C)SC(NC(C)=O)=NN1C(C)=O (stereo not drawn)
→ 15%, -17, -0.2, -0.9%, 3%, 0.5
(43) O=C(Nc1ccc(F)cc1F)c1ccccc1-c1ccccc1
→ 29%, -4, -0.2, -2.9%, 7%, 1.7
(44) Cc1ccc(C(=O)NCCSc2ccc(Cl)cc2)cc1[N+](=O)[O-]
→ 23%, -12, 0.0, -1.9%, -16%, 2.9
(45) O=C(CNc1ccc(C(F)(F)F)cc1[N+](=O)[O-])OCC(=O)c1ccccc1
→ 8%, -2, 2.6, 0.7%, -2%, 5.6
(46) O=C(CCC(=O)c1ccc(Cl)cc1)OCc1nc2ccsc2c(=O)[nH]1
→ -8%[15.4 µM], -7, 2.4, ·, 5%, ·
(47) O=C(Nc1c(C(=O)O)oc2ccccc12)c1ccc(C(F)(F)F)cc1
→ ·, 7, -0.2, 0.3%, ·, ·
(48) S=C(NCCCn1ccnc1)Nc1ccc(Cl)cc1Cl
→ -3%[15.4 µM], 3, -0.6, ·, 3%, -2.2
(49) Cc1cccc(N2CCN(C(=O)c3ccc4c(c3)OCCO4)CC2)c1C
→ -24%[15.4 µM], -10, -0.3, -0.2%, -6%, -0.6
(50) Cc1cccc(N(O)C(=O)Nc2cccc(Cl)c2)c1
→ 2%[15.4 µM], 11, -0.1, 0.3%, 1%, 11
(51) O=C(O)c1cc(S(=O)(=O)Nc2ccc3cn[nH]c3c2)ccc1Cl
→ 0%, -22, 0.1, 0.6%, 4%, ·
(52) CCCOc1c(Br)cc(C(=O)NCC)cc1OC
→ ?, ?, -0.9, -0.5%, -2%, -0.7
(53) CN1C(=O)c2ccccc2Sc2ccc(NC(=O)N3CCCC3)cc21
→ 1%, 18, 2.0, -0.3%, -5%, 1.3
(54) CC(CCN1C(N(C)C)=NC[C@@H]1C)c1ccccc1 (stereo partly drawn)
→ 29%, 5, -0.5, -0.3%, -5%, ·
(55) O=C(NCc1ccccc1)Nc1cccn(Cc2ccccc2F)c1=O
→ -16%, -16, 0.9, 20µM*, -2%, 2.4
(56) N#C/C(=C\c1ccc([N+](=O)[O-])o1)c1nc2ccccc2[nH]1
→ ?, -9, 5.6, -1.2%, ?, ?
(57) Cc1cccc(C)c1OCC(=O)Nc1cccc(-c2nnc(-c3ccccc3)o2)c1
→ 5%, -5, 0.1, -27%, -13%, 0.9

# Looked up by structure from the entries so far (four):
# Each structure is followed by: gsp agonist, TRPML1 blocker, TRPML1 ag, ClpP mod, gsp antagonist, Menin MLL FP FL
(53) CN1C(=O)c2ccccc2Sc2ccc(NC(=O)N3CCCC3)cc21
→ 1%, 18, 2.0, -0.3%, -5%, 1.3
(56) N#C/C(=C\c1ccc([N+](=O)[O-])o1)c1nc2ccccc2[nH]1
→ ?, -9, 5.6, -1.2%, ?, ?
(49) Cc1cccc(N2CCN(C(=O)c3ccc4c(c3)OCCO4)CC2)c1C
→ -24%[15.4 µM], -10, -0.3, -0.2%, -6%, -0.6
(55) O=C(NCc1ccccc1)Nc1cccn(Cc2ccccc2F)c1=O
→ -16%, -16, 0.9, 20µM*, -2%, 2.4

# 3 entries from above, set out differently:
49) Cc1cccc(N2CCN(C(=O)c3ccc4c(c3)OCCO4)CC2)c1C
50) Cc1cccc(N(O)C(=O)Nc2cccc(Cl)c2)c1
51) O=C(O)c1cc(S(=O)(=O)Nc2ccc3cn[nH]c3c2)ccc1Cl
entry no.	49	50	51
gsp agonist	-24%[15.4 µM]	2%[15.4 µM]	0%
TRPML1 blocker	-10	11	-22
TRPML1 ag	-0.3	-0.1	0.1
ClpP mod	-0.2%	0.3%	0.6%
gsp antagonist	-6%	1%	4%
Menin MLL FP FL	-0.6	11	·
